Screening data (PubChem)
D2 potentiator: potentiates the human D2 dopamine receptor allosterically; DiscoveRx D2 beta-arrestin cells, luminescence, 90 min; 100% = 57 uM dopamine signal; potentiation, % (no concentration beside the values); 360,000 compounds, 0.23% hits; AID 624464; active = potentiation of 50% or more; inconclusive = 30% to 50%; inactive = 30% or less;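 further: compound concentration not given in the record; tested on top of an EC20 dose of dopamine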
Target sequence (P14416 whole entry, looked up): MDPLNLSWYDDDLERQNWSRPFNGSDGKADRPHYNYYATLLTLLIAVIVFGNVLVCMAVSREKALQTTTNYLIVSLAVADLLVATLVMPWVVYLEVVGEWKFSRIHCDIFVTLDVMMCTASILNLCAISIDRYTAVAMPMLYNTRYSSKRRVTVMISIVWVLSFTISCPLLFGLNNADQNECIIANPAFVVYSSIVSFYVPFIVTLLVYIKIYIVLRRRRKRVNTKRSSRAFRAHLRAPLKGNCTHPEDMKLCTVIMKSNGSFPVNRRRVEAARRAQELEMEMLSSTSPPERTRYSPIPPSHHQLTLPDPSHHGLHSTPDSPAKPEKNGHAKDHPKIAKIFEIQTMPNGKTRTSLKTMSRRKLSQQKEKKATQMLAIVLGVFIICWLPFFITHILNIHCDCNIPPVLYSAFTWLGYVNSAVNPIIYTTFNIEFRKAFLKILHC
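PathHunter D2 cells, attached overnight at 37 deg C, received compound in DMSO plus dopamine at EC20 (50 nM final) for 90 min at 37 deg C. Beta-arrestin recruitment was read as luminescence after 1 h with detection reagent at ambient temperature.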
TRPV1 potentiator: potentiators of human vanilloid receptor 1 (TRPV1) | 320,000 compounds, 0.02% hits | TRPV1-expressing cells, Fluo-8 calcium influx, capsaicin EC20 potentiation; host cell line not named in the record; control for the full effect not named in the record | Q8NER1 | potentiation, % at 8.33 µM; active means potentiation above 80%; inconclusive means 30% to 80%; inactive means below 30%; further: 0% is about no effect
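Fluo-8 calcium influx in TRPV1-expressing cells, kinetic read (ex 480/em 520 nm). Compound added and read 3 min for agonist activity, followed by capsaicin at EC20 final and 2 min further read for enhancement.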
TRPML1 inh: inhibitors of human TRPML1 channel; activity change, negative = inhibition, % (concentration not given with the values); 390,000 compounds, 0.02% hits; TRPML1-inducible cells, Ca2+ dye fluorescence, FDSS; stronger effect = lower value; inhibition of EC80 agonist-evoked calcium signal; Q9GZU1; AID 624415; in the data active means activity change below about -50%; inconclusive means about -30% to -50%; inactive means above about -30%;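 further: stimulus is agonist 54-4 at its EC80 concentration; on the % scale 0 is the no-effect control and ±100 the full control effect; the text of the record puts the active cut at -80%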
Target sequence (Q9GZU1 whole entry, looked up): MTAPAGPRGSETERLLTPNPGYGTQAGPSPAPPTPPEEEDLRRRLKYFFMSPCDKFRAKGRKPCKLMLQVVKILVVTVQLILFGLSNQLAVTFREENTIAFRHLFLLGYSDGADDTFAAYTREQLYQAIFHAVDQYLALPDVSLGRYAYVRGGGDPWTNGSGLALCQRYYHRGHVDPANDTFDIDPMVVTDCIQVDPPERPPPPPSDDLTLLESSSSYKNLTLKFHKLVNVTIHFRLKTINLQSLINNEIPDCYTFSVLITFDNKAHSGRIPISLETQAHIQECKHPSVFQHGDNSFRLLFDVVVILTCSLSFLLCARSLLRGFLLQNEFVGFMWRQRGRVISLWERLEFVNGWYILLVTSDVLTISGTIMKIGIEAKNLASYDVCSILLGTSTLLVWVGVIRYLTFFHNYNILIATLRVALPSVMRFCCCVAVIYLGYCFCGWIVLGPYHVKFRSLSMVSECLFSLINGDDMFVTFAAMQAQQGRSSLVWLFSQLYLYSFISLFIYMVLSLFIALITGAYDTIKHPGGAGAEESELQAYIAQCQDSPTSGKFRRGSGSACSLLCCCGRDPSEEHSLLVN
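Calcium fluorescence in TRPML1-DL cells induced overnight with Tet: a 110 s read after compound pin addition, then a 110 s antagonist read after challenge with 54-4 at 4 uM final (EC80).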
Six1-Eya2 blk: Six1/Eya2 interaction inhibition. activity change, % (no concentration beside the values). 360,000 compounds, 0.56% hits. AID 651725. AlphaScreen GST-Six1/His-Eya2 binding, biochemical; stronger effect = lower value; control for the full effect not named in the record. Q15475+O00167; in the data active = activity change below about -65%; inconclusive = about -30% to -65%; inactive = above about -30%; further: on the % scale 0 is the no-effect control and ±100 the full control effect
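Compounds are tested against tagged Six1 and Eya2 proteins bridged by glutathione donor and nickel acceptor beads; after a one-hour incubation at 37 °C without light, AlphaScreen emission is recorded.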
TRPML1 ag: activates the human TRPML1 channel; Q9GZU1; TRPML1-expressing cells, Ca2+ dye fluorescence, FDSS; host cell line not named in the record; reference of the full effect not given here; activation, % (test concentration not listed); 410,000 compounds, 0.12% hits; AID 624414; in the data active = activation above about 50%; inconclusive = about 30% to 50%; inactive = below about 30%; further: 0% is about no effect; the text of the record puts the active cut at 80%
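Agonist activity was taken from a 110 s kinetic Ca2+ dye read on the FDSS after pinning compounds onto TRPML1-DL cells. The cells were seeded at 1,500/well with Tet inducer, incubated about 16 h, then dye-loaded at room temperature.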
CtBP-E1A inh: inhibitors of CtBP/E1A interaction; AlphaScreen GST-E1A/His-CtBP binding, 1536-well; stronger effect = lower value; control for the full effect not named in the record; activity change, % (test concentration not listed); 340,000 compounds, 0.49% hits; AID 651724; in the data active means activity change below about -65%; inconclusive means about -30% to -65%; inactive means above about -30%; further: on the % scale 0 is the no-effect control and ±100 the full control effect
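GST-E1A and His-tagged CtBP (125 nM each as 5X stock) were preincubated with pin-transferred compound for 2 h at 37 °C in the dark, then glutathione donor and nickel acceptor beads were added for 1 h before AlphaScreen reading.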
The depositor's hits bear a star; u = inconclusive; x = not tested or not shown.

Structure,D2 potentiator,TRPV1 potentiator,TRPML1 inh,Six1-Eya2 blk,TRPML1 ag,CtBP-E1A inh
Cc1cccc(NC2CNC(=O)NC2=O)c1 (configuration not stated),-4,x,-10,6,-0.4,1
CCN1CCc2c(sc(NC(=S)NC(=O)c3ccccc3)c2C#N)C1,-41,x,-10,-7,-0.4,-17
CCCNC(=O)c1c(N)n(-c2ccc(S(N)(=O)=O)cc2)c2nc3ccccc3nc12,-1,2,-5,0,0.4,-1
Cc1c(C)n(CCc2ccccc2)c2ncnc(NN)c12,-11,-6,18,-12,0.9,-20
O=C(CC1NC(=O)NC1=O)NC1(C(=O)NC2CCCCC2)CCCCC1 (configuration not stated),-20,2,-11,2,0.2,3
N/C(=N\OC(=O)CSc1ccccc1)c1ccc([N+](=O)[O-])cc1,2,3,-10,-15,4.4,-8
CCOc1ccc(-c2[nH]ncc2-c2ccc(Cl)cc2)c(O)c1,-9,5,2,0,2.3,x
CCSc1nnc(C)c2ccccc12,-3,3,-21,1,-0.5,-3
O=[N+]([O-])c1ccc(/C=N/NC(=S)Nc2ccccc2C(F)(F)F)o1,19,-4,8,0,0.2,-1
Cc1cc(CSc2ccccc2)ccc1NC(=O)c1ccc(Br)cc1,1,-5,1,7,0.2,1
Cc1ccc(-c2nnn(CC(=O)N(CC(=O)NC3CCCC3)c3ccc(F)c(Cl)c3)n2)o1,-8,4,-6,-1,0.2,2
CCOC(=O)c1c(NC(=O)CSc2n[nH]c(N)n2)sc(CC)c1C,3,-5,-17,-10,-0.6,-9
COc1cc(C2C3=C(CCCC3=O)Nc3[nH]n(-c4ccccc4)c(=O)c32)cc(OC)c1OC (configuration not stated),-3,1,u,-9,0.1,-2
CSc1ccc(CN(C)C(=O)CN2C(=O)NC3(CCCC3)C2=O)cc1,-12,-4,9,3,-0.3,-1
CCCN1C(=O)C(NC(C)=O)c2ccccc21 (configuration not stated),-6,2,-10,5,-0.8,-19
CC(Sc1nnc(-c2ccc(Cl)cc2)n1C)C(N)=O (configuration not stated),0,9,-15,-2,-0.6,3
COc1ccc(S(=O)(=O)N2CCCCC2)cc1NC(=O)Cn1cnc2ccccc2c1=O,2,9,-15,26,0.3,-3
Cc1cc(NC(=O)CCC(=O)N(c2ccccc2)C(C(=O)NC2CCCC2)c2ccccc2)no1 (configuration not stated),-22,13,0,0,1.3,-11
CCN=C1S/C(=C/c2ccc(-c3ccc(Cl)cc3C(=O)O)o2)C(=O)N1CC,-5,u,-7,-8,0.3,1
CCn1c(SCC(=O)c2ccccc2)nnc1-c1cccnc1,-8,1,2,0,0.2,9
COc1cccc(NC(=O)CCSc2ccc3ccccc3n2)c1,-19,-23,-8,0,1.7,-3
COc1cc(C(=O)Nc2ccc3c(c2)OCCO3)ccc1OC(C)C,-19,x,-8,5,1.1,1
Cc1cccc(/C=N/NC(=O)c2ccc(NC(=O)c3cccc(Cl)c3)cc2)n1,1,0,-3,-23,1.4,-27
O=S(=O)(/C=C/c1ccccc1)N1CCNCC1,-4,17,-10,16,0.7,6
O=c1cc(C(F)(F)F)nc(-c2ccccc2OC(F)(F)F)[nH]1,16,6,13,8,1.0,x

Exported with two lines to a compound: part of the list above
The line under a structure holds: D2 potentiator	TRPV1 potentiator	TRPML1 inh	Six1-Eya2 blk	TRPML1 ag	CtBP-E1A inh
> CCOc1ccc(-c2[nH]ncc2-c2ccc(Cl)cc2)c(O)c1
  -9	5	2	0	2.3	x
> COc1cccc(NC(=O)CCSc2ccc3ccccc3n2)c1
  -19	-23	-8	0	1.7	-3

(next part)
Structure,D2 potentiator,TRPV1 potentiator,TRPML1 inh,Six1-Eya2 blk,TRPML1 ag,CtBP-E1A inh
Cc1ccccc1OCC(O)CN1CCN(CC(O)COc2ccccc2C)C(C)C1 (configuration not stated),-19,-14,-13,2,-0.5,0
CC(=O)Nc1ccc(-c2ccnc3c2CC(C)(C(=O)NCc2cccc(Cl)c2)O3)cc1 (configuration not stated),-1,x,x,0,-0.4,-6
CCCCNC(=O)c1cn(-c2ccc(OCC)cc2)c(=O)c2cc(OC)c(OC)cc12,-8,-17,-9,6,2.1,-9
Cc1ccc(C)c2[nH]c(=O)c(CCNC(=O)c3ccc(S(=O)(=O)N(C)C)cc3)cc12,-4,14,0,-7,-1.1,-1
CCOc1cc(-c2nc(C)c(C(C)=O)n2O)ccc1OCC(=O)Nc1ccc(F)cc1,-3,1,-8,-5,-0.5,5
COc1cccc(C(=O)Nc2ccc3c(c2)C(=O)N(CCC(=O)O)C3=O)c1,-11,3,12,-4,-0.5,-8
Cc1ccc(C(O)(C(=O)NN(C(=O)c2ccccc2)c2ccccc2)c2ccc(C)cc2)cc1,-3,-7,23,6,2.2,7
COc1ccccc1C1CC(c2ccc(Cl)cc2)Nc2nc(N)nn21 (configuration not stated),-4,-8,-14,-3,4.7,1
O=C(Cc1ccccc1)N[C@H](c1ccccc1)P(=O)(O)CO,-6,25,10,0,-0.1,8
O=C(COC(=O)c1ccccc1Nc1ccccc1F)c1ccccc1,-11,8,5,29,3.2,24
Cc1nc(Nc2ccncc2)c2oc3ccccc3c2n1,-8,0,-5,u,-0.3,-12
COc1ccc(/C=C(/C(=O)Nc2ccccc2C(=O)NC(C)C)c2ccccc2)cc1,-16,-3,-6,-3,2.2,-5
O=C(Oc1ccccc1C(=S)N1CCOCC1)c1ccccc1,-7,-42,0,3,-0.6,-4
O=C(NCc1ccco1)/C(=C/c1ccc(F)cc1)NC(=O)c1ccccc1,-1,-4,11,-2,1.8,-6
CCCN(CCO)Cc1cccc(Cl)c1,-8,-11,-7,5,0.5,10
Cc1c(OCC(=O)NCC(O)c2ccccc2)ccc2c(-c3ccccc3)cc(=O)oc12 (configuration not stated),0,7,x,-2,x,-5
CC(=O)Nc1nc(C(=O)Nc2c(C)n[nH]c2C)cs1,-1,-29,7,-2,-0.2,-7
Cc1ccc2nc(CCc3nc4ccc(C)cc4[nH]3)[nH]c2c1,-15,-7,32,-11,1.5,-11
C=CCC(O)c1c(-c2ccccc2)nn(C)c1Cl (configuration not stated),-3,-3,5,4,-0.7,9
COc1ccccc1CC(=O)N1CCN(c2cccc(Cl)c2)CC1,-13,-7,-5,-2,0.4,-1
C/C(=N\NC(=O)Cn1ccc(C(F)(F)F)n1)c1ccco1,3,u,13,2,-0.5,-1
Cc1cccc(-n2c(=O)c3c4c(sc3n3c(=S)[nH]nc23)CCC4)c1,-1,-5,-5,0,0.6,5
COc1ccc(N(C)C(=O)C2CCCN2S(=O)(=O)c2cccc3nsnc23)cc1 (configuration not stated),-11,5,12,2,0.4,2
O=C(c1ccc(CNS(=O)(=O)c2ccccc2)cc1)N1CCN(Cc2ccccc2)CC1,7,-5,-16,-1,4.6,-8
O=C(NN1CCOCC1)C12CC3CC(CC(C3)C1)C2,3,-3,0,1,0.1,5

Structure,D2 potentiator,TRPV1 potentiator,TRPML1 inh,Six1-Eya2 blk,TRPML1 ag,CtBP-E1A inh
CCCCN1C(=O)C(=O)N(CC(=O)c2cc(C)n(-c3cc(C)on3)c2C)C1=O,-5,4,39,-2,1.4,-10
CC(C)CCN1CCC(Cc2ccccc2)(NC(=O)c2ccccc2)C1=O (configuration not stated),8,-25,19,-6,0.5,1
CC(=O)Nc1cccc(NC(=S)Nc2cccc3ccccc23)c1,-4,-3,7,-11,-0.4,3
Cc1ccccc1OCCC(=O)OCC(=O)NC(=O)c1ccccc1,-6,u,2,8,0.4,0
CS(=O)(=O)c1ccc(Nc2nc(C(N)Cc3ccc(F)cc3)cs2)cc1 (configuration not stated),0,x,x,-14,0.1,-1
CC1(C)Cc2c(sc(NC(=O)C(=O)N3CCCCC3)c2C(N)=O)CO1,-7,-4,4,16,1.0,35
Cc1occc1-c1nnc(SCC(=O)N2CC(=O)Nc3ccccc32)n1CC(C)C,-19,1,31,0,2.0,5
Cc1nn(-c2ccccc2)c(C)c1NC(=O)COc1ccc(C#N)cc1,-2,8,19,-2,0.5,1
COC(=O)C1=C(SC)N(c2ccc(OC)cc2)C(c2ccccc2)CC1=O (configuration not stated),-25,21,-5,25,1.0,0
COc1ccc(OCc2cc(-c3ccc(Cl)cc3)no2)cc1,3,u,46,7,1.8,-21
CCCC(=O)c1cc2c(cc1NC(=O)CC)OCCO2,0,-12,-3,3,0.2,7
CC(C)CNC(=S)Nc1ccc(F)cc1,-11,-7,-10,0,-0.8,-5
CCCOc1ccc(/C=C2\SC(=S)N(CC3CCCO3)C2=O)cc1 (configuration not stated),-19,-4,22,1,-0.3,0
Nn1cnnc1SCC(=O)Nc1ccc2c(c1)OCCO2,-15,-5,0,-2,0.4,9
O=C(CCc1c[nH]c2ccccc12)NCc1ccc2c(c1)OCO2,-13,1,5,-7,0.2,-1
CC1CC(C)CN(C(=O)c2cccc(S(=O)(=O)N3c4ccccc4CC3C)c2)C1 (configuration not stated),-5,-8,47,-2,3.3,3
C/C(=N/NC(=O)CN1CCN(Cc2ccccc2Cl)CC1)c1cccnc1,-5,0,-2,0,2.1,x
CC1CCN(c2ccc(NC(=O)c3ccc(Br)o3)cc2)CC1,-1,-14,-14,-19,-0.5,-4
COC(=O)C1SCC2C(=O)N(Cc3ccc(Cl)c(Cl)c3)CC(=O)N21 (configuration not stated),-6,-21,3,3,-0.1,x
COc1ccc(NC2=CC(c3ccc(OC)cc3)N(c3ccc(OC)cc3)C2=O)cc1 (configuration not stated),2,8,-11,-28,0.5,x
Cc1ccc(NC(=O)Cc2c(F)cccc2Cl)cc1S(=O)(=O)N1CCOCC1,-3,x,-1,5,0.2,6
CCn1c(SCC(=O)NC(C)(C)C)nnc1-c1ccncc1,-5,4,5,-1,-0.2,3
O=C(NCCc1ccccc1)C1CCN(c2nc3ccccc3o2)CC1,3,-2,2,4,-0.4,6
Cc1ccc(C(O)c2ccncc2)cc1 (configuration not stated),6,4,-3,0,-0.1,7
CN1CCN(c2nc(-c3ccc(Cl)cc3)cc(=O)[nH]2)CC1,-9,20,2,1,0.3,-2

Structure,D2 potentiator,TRPV1 potentiator,TRPML1 inh,Six1-Eya2 blk,TRPML1 ag,CtBP-E1A inh
CC1(C)NC(=O)N(CC(=O)OCC(=O)Nc2cc(S(=O)(=O)N3CCCCC3)ccc2Cl)C1=O,1,-29,14,-11,-0.2,4
Cc1[nH]c(C)c(S(=O)(=O)N2CCN(c3ccccc3)CC2)c1C(=O)N1CCCC1,-6,13,5,0,-0.2,-1
COc1ccc(/C=C\c2onc(C)c2S(=O)(=O)N2CCC(C(=O)NCCC(C)C)CC2)cc1,-9,x,-3,2,1.1,-3
COC(=O)CNC(=O)COC(=O)c1cc(F)c(F)cc1Cl,2,-1,2,6,0.2,-1
O=C(c1ccco1)N1CCN(S(=O)(=O)c2ccccc2[N+](=O)[O-])CC1,1,7,10,0,-0.4,x
O=c1cc[nH]c2c1ccc1cccnc12,-15,-2,0,u,-0.6,u
